Assay outcomes (PubChem)
P. falciparum M1AAP: P. falciparum M1AAP inhibitors, biochemical, fluorogenic H-Leu-NHMec substrate, 1536-well (AID 1445); recombinant M1AAP, H-Leu-NHMec fluorogenic kinetic assay; higher % means a stronger effect; one-dose inhibition, % at 30 µM; IC50 in µM for titrated hits; 220,000 compounds, 0.42% hits;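 active means primary inhibition above the hit cutoff, then over 50% inhibition at one or more dose response concentrations, cut at about 23% in these data, passing the limit was not always enough; inconclusive means conflicting primary data, or primary hits not chosen for dose response; inactive means low primary inhibition, or under 50% at every dose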;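 further: plate controls were DMSO full reaction for no effect and no enzyme background for full effect; strong numbers were not always called active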
PMI inhibition: MPI inhibition at elevated mannose 6-phosphate – biochemical, fluorescence intensity, high mannose 6-phosphate, primary screen (AID 1220). recombinant PMI enzyme, coupled fluorescence intensity; higher % means a stronger effect. 190,000 compounds, 0.66% hits. inhibition, % at 20 µM; hits with a dose series show IC50 in µM
CSM14.1 death rescue: protection against thapsigargin-triggered cell killing – 384-well, CSM14.1, ATP luminescence, primary screen (AID 1222). 190,000 tested, under 10 active. cellular ATP content (survival), % at 20 µM; hits with a dose series show EC50 in µM. CSM14.1 thapsigargin-induced death rescue, ATP luminescence; higher % means a stronger effect;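 active means EC50 below 50 µM in the dose-response confirmation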;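 further: death triggered by thapsigargin at about 15 µM added after 2 h compound pretreatment; cell ATP read after overnight thapsigargin exposure of roughly 18 to 22 hours; normalized against plate controls of thapsigargin alone and 5% DMSO vehicle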
Myeloid diff MLP: compounds promoting myeloid differentiation; 360,000 compounds, 1% hits; ER-HoxA9 myeloid progenitors, lysozyme-GFP differentiation, flow cytometry; calls only at 10 µM;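 active means normalized GFP-positive differentiation at or above the plate's own cutoff, the solvent-only control mean plus 3 SD; inconclusive means no clear call, values can overlap the other calls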;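 further: cells exposed to compound for four days before flow analysis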
human PMI inhibition: inhibitors of human PMI, primary screen, biochemical, fluorescence intensity, coupled assay (AID 1209); purified PMI enzyme, coupled fluorescence intensity; higher % means a stronger effect; inhibition, % at 20 µM; hits with a dose series show IC50 in µM; 190,000 compounds, 0.42% hits;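 further: plate controls were DMSO vehicle for no effect and wells lacking substrate for full effect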
Myeloid diff MLP GFP+ MAC1+ %: further read-out of Myeloid diff MLP, marked with its call; GFP+ MAC1+ double positive, %; measured here: differentiation confirmed by MAC1 staining
Active calls of the source: *; i = inactive; ? = inconclusive; . = not tested or not shown; & = joins results of further samples. Unless noted, no stated cut-off is given here; in the data, active means inhibition above about 50%; inactive means the rest. Some of the compounds tested, so the mix of outcomes need not match the whole.

SMILES	P. falciparum M1AAP	PMI inhibition	CSM14.1 death rescue	Myeloid diff MLP	Myeloid diff MLP GFP+ MAC1+ %	human PMI inhibition
COc1ccc2cc([C@H](C)C(=O)O)ccc2c1	1%	-4%	-2.4%	i	1.6	-2%
CN(C)c1ccnc2sc(C(N)=O)c(N)c12	12%	-75%	-0.7%	i	2.9	-29%
CCCc1cc(=O)[nH]c(-n2[nH]c3c(c2=O)CCCC3)n1	3%	36%	17%	i	0.9	15%
O=C(CCCN1CC=C(n2c(=O)[nH]c3ccccc32)CC1)c1ccc(F)cc1	3%&-3%	-6%&5%	-3.5%&-1.9%	i	4.3	-3%&11%
O=C(/C=C/c1ccccc1)Nc1ncn[nH]1	2%	8%	-0.9%	i	4.6	4%
NS(=O)(=O)c1cc2c(cc1Cl)NC=NS2(=O)=O	-2%	-5%	-2.3%	i	2.2	-4%
CCn1nc(C(=O)O)c(=O)c2cc3c(cc21)OCO3	-14%	-13%	-3.8%	i	3.8	-14%
O=C(NNC(=S)NC(=O)c1ccccc1[N+](=O)[O-])c1ccccc1[N+](=O)[O-]	-17%	-11%	-2.9%	i	7.6	-14%
CCCCC1=NC2(CCCC2)C(=O)N1Cc1ccc(-c2ccccc2-c2nn[nH]n2)cc1	-4%	-2%	0.9%	.	.	0%
CC(C)(C)c1ccc(C(O)CCCN2CCC(C(O)(c3ccccc3)c3ccccc3)CC2)cc1 (stereo unspecified)	-8%	-2%	-2.4%	?	.	-2%
O=C(O)Cc1cc(I)c(Oc2ccc(O)c(I)c2)c(I)c1	33%	-1%	2.3%	.	.	-4%
Cc1ccc(SC(C)C(=O)Nc2ncn[nH]2)cc1 (stereo unspecified)	9%	2%	.	i	1.8	5%
O=C(NNc1ccccn1)C(=O)NNS(=O)(=O)c1ccc(Cl)cc1	9%	-1%	-0.5%	i	1.6	39%
Cc1ccccc1-n1nc(CSc2nc3ccccc3[nH]2)c(-c2ccccc2)c1N	6%	3%	-1.5%	i	0.1	6%
Cc1ccc(NC(=S)NNC(=O)c2cn(C)nc2C)cc1	5%	-11%	-0.6%	i	0.7	-6%

Grouped by structure, the entries above with an NH in an aromatic ring.
SMILES	P. falciparum M1AAP	PMI inhibition	CSM14.1 death rescue	Myeloid diff MLP	Myeloid diff MLP GFP+ MAC1+ %	human PMI inhibition
CCCc1cc(=O)[nH]c(-n2[nH]c3c(c2=O)CCCC3)n1	3%	36%	17%	i	0.9	15%
O=C(CCCN1CC=C(n2c(=O)[nH]c3ccccc32)CC1)c1ccc(F)cc1	3%&-3%	-6%&5%	-3.5%&-1.9%	i	4.3	-3%&11%
O=C(/C=C/c1ccccc1)Nc1ncn[nH]1	2%	8%	-0.9%	i	4.6	4%
CCCCC1=NC2(CCCC2)C(=O)N1Cc1ccc(-c2ccccc2-c2nn[nH]n2)cc1	-4%	-2%	0.9%	.	.	0%
Cc1ccc(SC(C)C(=O)Nc2ncn[nH]2)cc1 (stereo unspecified)	9%	2%	.	i	1.8	5%
Cc1ccccc1-n1nc(CSc2nc3ccccc3[nH]2)c(-c2ccccc2)c1N	6%	3%	-1.5%	i	0.1	6%

Remaining list, next part
SMILES	P. falciparum M1AAP	PMI inhibition	CSM14.1 death rescue	Myeloid diff MLP	Myeloid diff MLP GFP+ MAC1+ %	human PMI inhibition
O=C(N/N=C/c1ccc([N+](=O)[O-])o1)c1ccc(O)cc1	2%	48%	-1.3%	i	1.7	0%
c1ccc(-c2ccc(-c3cn4c(n3)CCC4)cc2)cc1	4%	-7%	-3.7%	i	0.3	-9%
NC1C2CN(c3nc4c(cc3F)c(=O)c(C(=O)O)cn4-c3ccc(F)cc3F)CC12 (stereo unspecified)	10%	19%	5.2%	i	9.5	16%
N#Cc1ccc(OCC(O)CN2CCC(C(O)(c3ccccc3)c3ccccc3)CC2)cc1 (stereo unspecified)	.	.	.	i	0.9	.
CNCC(=O)O	.	.	.	i	2.7	.

Among those listed so far, these have a nitro group on carbon:
SMILES	P. falciparum M1AAP	PMI inhibition	CSM14.1 death rescue	Myeloid diff MLP	Myeloid diff MLP GFP+ MAC1+ %	human PMI inhibition
O=C(NNC(=S)NC(=O)c1ccccc1[N+](=O)[O-])c1ccccc1[N+](=O)[O-]	-17%	-11%	-2.9%	i	7.6	-14%
O=C(N/N=C/c1ccc([N+](=O)[O-])o1)c1ccc(O)cc1	2%	48%	-1.3%	i	1.7	0%

Shown with each value named: part of the list above
N#Cc1ccc(OCC(O)CN2CCC(C(O)(c3ccccc3)c3ccccc3)CC2)cc1 (stereo unspecified)
- P. falciparum M1AAP = .
- PMI inhibition = .
- CSM14.1 death rescue = .
- Myeloid diff MLP = i
- Myeloid diff MLP GFP+ MAC1+ % = 0.9
- human PMI inhibition = .

CNCC(=O)O
- P. falciparum M1AAP = .
- PMI inhibition = .
- CSM14.1 death rescue = .
- Myeloid diff MLP = i
- Myeloid diff MLP GFP+ MAC1+ % = 2.7
- human PMI inhibition = .

Reprinted at random: two entries already listed.
SMILES	P. falciparum M1AAP	PMI inhibition	CSM14.1 death rescue	Myeloid diff MLP	Myeloid diff MLP GFP+ MAC1+ %	human PMI inhibition
O=C(N/N=C/c1ccc([N+](=O)[O-])o1)c1ccc(O)cc1	2%	48%	-1.3%	i	1.7	0%
NC1C2CN(c3nc4c(cc3F)c(=O)c(C(=O)O)cn4-c3ccc(F)cc3F)CC12 (stereo unspecified)	10%	19%	5.2%	i	9.5	16%
